Vaccinia Venus = vaccinia inhibition (Venus reporter). Vaccinia virus Venus reporter expression, fluorescence. Potency, µM (highest dose often 36.5 µM), for the others: top-dose activity change, negative = inhibition, most hits filed as inhibitors. hit rate 0.46% among 330,000. AID 720580; active means well fitted inhibition curve with a large enough effect; inconclusive means small, poorly fitted or top-dose-only effect; inactive means no such curve, though single readings can be large or run the other way; tested in A549 cells; further: nearly all actives have a fitted effect of over 30% in size; inactives centre near -10
Vaccinia mCherry = vaccinia inhibition (mCherry reporter); Vaccinia virus mCherry reporter infection, fluorescence; about a quarter of the inactives have no number; Potency, µM (doses to about 36.5 µM), for inactives: at the highest dose activity change, negative = inhibition, usual class: inhibitors; hit rate 0.63% among 310,000; AID 720579; active = well fitted inhibition curve with a large enough effect; inconclusive = small, poorly fitted or top-dose-only effect; inactive = no such curve, though single readings can be large or run the other way; tested in A549 cells; further: nearly all actives have a fitted effect of over 35% in size; inactives centre near -10
Active calls of the source: *; i = inactive; u = inconclusive; x = no result given; & = joins results of further samples; [ ] = dose if it differs, or a comment. On the % scale 0 is the no-effect control and ±100 the full control effect; potency means the concentration at half of the fitted maximal effect.

SMILES,Vaccinia mCherry,Vaccinia Venus
Cc1ccc(C(=O)NCC(=O)OCC(=O)c2c(N)n(C)c(=O)n(C)c2=O)s1,x,-4.8%
CON(C)C(=O)c1ccccc1N(C)C(=O)OC(C)(C)C,i,-4.6%
COc1ccc(N2C(=O)C(=O)/C(=C(/O)c3ccc(C)cc3)C2c2cccnc2)cc1 (configuration not stated),-15.1%,-14.3%
CN(Cc1nccn1C)C(=O)C1CCC(=O)N(CCc2ccc(Cl)cc2)C1 (configuration not stated),-9.8%,-7.1%
COc1ccc(C)cc1NC(=O)Cc1csc(NC(=O)Nc2ccccc2OC)n1,-6.4%,-23.9%
COc1ccc(/C=C/C(=O)OCC(=O)c2c(N)n(C)c(=O)n(C)c2=O)cc1,-14.3%,-8.7%
NS(=O)(=O)c1cccc(NC(=O)COC(=O)Cc2ccc(Cl)cc2)c1,i,-1.8%
CC(=O)Nc1ccc(C(=O)N2CCCCC2c2cc(C(=O)N3CCOCC3)no2)cc1 (configuration not stated),-13.3%,-6.9%
CSCC[C@H](NC(=O)Cc1ccc(Cl)cc1)C(=O)N1CCC2(CC1)NCCc1[nH]cnc12,-25.9%,-6.9%
CCN(CC)c1ccc(C(NC(=O)C(C)C)c2ccc3cccnc3c2O)cc1 (configuration not stated),u,u
CC(C)c1nnc(NC(=O)COc2ccccc2[N+](=O)[O-])s1,i,-15.4%
CCC(C)(C)NC(=O)C(c1ccc(OC)cc1)N(C(=O)CCC(=O)Nc1cc(C)on1)c1ccc(F)cc1 (configuration not stated),-24.7%,-20.4%
CCO[C@H]1OC(C(=O)N2CCN(Cc3ccc4c(c3)OCO4)CC2)=C[C@@H](c2ccccc2)[C@@H]1CCCO,-7.0%,-14.2%
CCCCn1nnnc1NCc1ccc(N2CCCC2)cc1,x,-17.5%
CN(C)CCCN(C(=O)CCc1ccccc1)c1nc2ccc(Br)cc2s1,u,u
Cc1[nH]c2ccccc2c1/C=C/c1nc2ccccc2c(=O)n1CCO,u,u
Cc1cccc(N(C)c2nc3ccc(C)cc3n3cnnc23)c1,-8.3%,-2.9%
Cc1ccc(N2CCN(Cc3nnc(-c4ccccc4F)o3)CC2)c(C)c1,-9.8%,7.8%
CCc1nnc(SCc2ccc(OC)c(Br)c2)n1N,x,-7.0%
Cc1cc(Nc2cccc(F)c2)nc(NCc2ccccc2)n1,12.6µM*,u
CSc1cccc(NC(=O)C2CCCN(S(=O)(=O)c3cccs3)C2)c1 (configuration not stated),i,-13.5%
Cc1cc2oc(=O)cc(CN3CCCCCCC3)c2cc1Cl,4.4%,1.1%
O=C(NC1CCN(Cc2ccccc2)CC1)C1COc2ccccc2O1 (configuration not stated),-28.3%,-21.1%
Cc1cnc(C)c(-c2cccc3c2OC(CNC(=O)c2cc(C)on2)C3)n1 (configuration not stated),-16.0%,2.0%
Cc1nccn1-c1ccc(C(F)(F)F)cc1NC=O,x,-5.9%
O=C(CCN1C(=O)c2ccccc2C1=O)Oc1ccc2ccccc2c1,-4.1%,-5.6%
COc1ccc(CNc2nc(-c3ccoc3)nc3ccccc23)c(OC)c1,-8.4%,0.3%
CN(C)c1ccc(C(CC(=O)c2ccccc2)C2CCCCC2=O)cc1 (configuration not stated),-17.0%,-8.5%
COc1cccc(C(=O)NCc2cccnc2)c1,-18.1%,-5.4%
Nc1nc[nH]c(=O)c1N,17.0%,-12.5%
O=C1C=C(c2cc(F)ccc2F)C[C@@H](c2ccc(F)cc2)C1,i,-19.4%
Cc1ccc(OCCn2cnc3c(N)ncnc32)cc1,-0.8%,0.2%
CC1CCN(C(=O)Cn2nnc(-c3ccc(N)cc3)n2)CC1,-11.2%,-8.9%
O=C(Nc1ccccc1)c1cc([N+](=O)[O-])ccc1N1CCNCC1,i,-9.7%
Cc1ccc(NC(=O)c2c(-c3ccccc3)noc2C)nc1,i,-6.4%
O=C(c1ccc(Cl)nc1)N1CCc2ccccc2C1,x,-9.5%
O=C(CNC(=O)c1ccc(Cl)cc1)OCN1C(=O)c2ccccc2C1=O,i,-1.9%
CCC[C@@H](CN1CCC[C@H]1CN1C(N)=NC[C@H]1C(C)C)N1C[C@@H](Cc2ccccc2)N(CCCC2CCCC2)C1=N,-5.3%,-1.8%
COc1ccc(OC(=O)C2CC(=O)N(c3ccc(C)cc3)C2)cc1 (configuration not stated),13.9%,11.8%
O=C(Cn1ncc(Cl)c(Cl)c1=O)N1CCN(S(=O)(=O)c2ccc3ccccc3c2)CC1,u,u
Cc1nc([N+](=O)[O-])c(N2CCN(C)CC2)n1Cc1ccccc1,-13.0%,-3.3%
N#CC1(Cc2ccc([N+](=O)[O-])cc2)c2ccccc2C=CN1C(=O)c1ccccc1 (configuration not stated),x,-10.9%
COc1ccc2oc(N)nc2c1,-12.9%,-8.4%
O=C1CC(N2CCN(c3nc4ccccc4s3)CC2)C(=O)N1c1ccc(F)cc1 (configuration not stated),u,-23.0%
CCOC(=O)C1CCCN(C(=O)c2cc(-c3ccncc3)nc3ccccc23)C1 (configuration not stated),u,-23.1%
COCCNC(=O)CN(C(=O)CCC(=O)Nc1ccccn1)c1ccc(F)cc1,x,-13.5%
CCCCNCCCOc1ccc(C)cc1Br,-29.1%,-14.3%
COc1ccc(OC2CCN(S(=O)(=O)c3cccc(F)c3)CC2)cc1,19.7%,10.3%

Complete entries, looked up by structure.
O=C(CCN1C(=O)c2ccccc2C1=O)Oc1ccc2ccccc2c1 as listed: Vaccinia mCherry = -4.1%; Vaccinia Venus = -5.6%
Cc1cnc(C)c(-c2cccc3c2OC(CNC(=O)c2cc(C)on2)C3)n1 (configuration not stated) as listed: Vaccinia mCherry = -16.0%; Vaccinia Venus = 2.0%

Continued:
SMILES,Vaccinia mCherry,Vaccinia Venus
COc1ccc(NCC(=O)Nc2ccc(Cl)cc2C)c(OC)c1,-9.9%,-6.1%
O=C(NCC(=O)N1CC=C(c2ccccc2)CC1)c1ccc(F)cc1,-20.7%,-16.4%
O=C(c1[nH]c(C(F)(F)F)nc1-c1ccccc1)N1CCN(Cc2c(F)cccc2Cl)CC1,i,0.8%
CCCCCCCSc1nnc(-c2ccccc2N)c(=O)[nH]1,-3.2%,10.7%
NC(=O)c1snnc1-c1ccccc1,-7.2%,-7.9%
CCOc1ccc(NC(=O)CSc2ccccc2N)cc1,u,u
O=C(N/N=C/c1ccc(OCC(=O)N2CCOCC2)cc1)c1ccccc1Cl,-7.8%,-3.4%
O=C(Cn1ncc2c3ccccc3n(Cc3ccc(Cl)cc3)c2c1=O)NC1CCCCCC1,-1.8%,-0.4%
CNC(=S)Nc1ccc(N2CCN(c3ccc(C(F)(F)F)cn3)CC2)nc1,-20.3%,u
CN(C(=O)c1cccc(NC(=O)Cc2cccc(NC(=O)C3CCCN(C(=O)C4CCCC4)C3)c2)c1)C1CCC1 (configuration not stated),u,-25.1%
COc1cc(OC)c(NC(=O)C2CCN(C(=O)c3sc4nc[nH]c(=O)c4c3C)CC2)cc1Cl,-7.7%,-7.1%
Cc1nn(-c2ccccc2)c(C)c1C(=O)NCCc1ccccc1,i,0.0%
CCCOc1ccc(CNC(=O)CCC(=O)n2ncc3cc(C)ccc32)cc1,-4.4%,-25.8%
COc1ccc(CC(=O)N2CCN(C(=O)Cc3ccc(OC)cc3)CC2)cc1,i,-8.0%
COc1ccc(CN(C)C(=O)c2ccc3ccccc3n2)cc1F,-7.9%,12.9%
CCOc1ccc(N2C(=O)CC(Sc3nc(C)cc(C)n3)C2=O)cc1 (configuration not stated),-10.5%,-13.7%
C[C@]12c3[nH]c4ccc(Cl)cc4c3CCN1C(=O)[C@@H](CC(=O)NCCC1=CCCCC1)C[C@@H]2C(=O)N1CCCCC1,-14.5%,-26.3%
C=CC(C1=CC(=O)C(OC)=C(OC)C1=O)c1ccccc1 (configuration not stated),u,u
Cc1cccc(-c2noc(-c3ccc(N4CCCC4)c([N+](=O)[O-])c3)n2)c1,0.4%,-4.9%
Cc1cccc(C(=O)N2CCN(S(=O)(=O)c3ccc4c(c3)OCCCO4)CC2)c1[N+](=O)[O-],i,-7.3%
CCCOC(=O)C1=C(C)NC2=C(C(=O)CCC2)C1c1ccc(N(C)C)cc1 (configuration not stated),x,3.6%
CC1CN(C(=O)N2CCC(C(=O)NCCC3=CCCCC3)CC2)c2ccccc2O1 (configuration not stated),1.5%,-3.1%
Cc1cc(NC(=O)CCC(=O)N(CC(=O)NC2CCCC2)Cc2ccc3c(c2)OCO3)no1,i,-10.2%
CCC(C)Sc1nnc(CSc2nc(C)cc(C)n2)n1C (configuration not stated),-1.1%,-5.7%
COc1ccc(-c2c(-c3cccc(C)c3)oc3ccc(-c4ccc5c(c4)OCO5)cc23)cn1,i,5.3%
CN(C)C(=O)CCc1ccc2c3c([nH]c2c1)[C@]1(CCC2CCCC2)[C@@H](C(=O)N2CCOCC2)C[C@H](CC(=O)NCc2cccc(C(F)(F)F)c2)C(=O)N1CC3,-24.0%,u
CC1=C(C(N)=O)C(c2cccs2)NC(=S)N1 (configuration not stated),i,-13.1%
CCn1c(CC(=O)Nc2ccc(C)cc2)nnc1SCC(=O)N1CCOCC1,-7.9%,0.6%
CCc1ccccc1NC(=S)N(Cc1ccc(C(=O)O)cc1)Cc1ccc(OC)c(OC)c1,i,-15.8%
CC(=O)NCCNc1nc2c(S(=O)(=O)c3ccc(C)c(C)c3)nnn2c2ccc(Cl)cc12,-20.9%,-17.3%
CC1(C)CC(=O)C(C=NCC2CCN(C(=O)Nc3ccc(Cl)c(Cl)c3)CC2)=C(O)C1,x,-9.0%
CC(C)c1ccc(N2C(=O)N(Cc3ccccc3Cl)c3ccccc3S2(=O)=O)cc1,-1.1%,-1.9%
OC(C#CCN1CCCC1)(c1ccccc1)c1cccc(F)c1 (configuration not stated),-10.3%,0.6%
CCn1nnc(-c2ccccc2NC(=O)c2ccc(-n3cnnn3)cc2)n1,-11.3%,-5.8%
c1ccc(Nc2ncnc3sccc23)cc1,-3.1%,-11.6%
CNC(=O)C(=O)NCC1OCCN1S(=O)(=O)c1ccc(C)cc1 (configuration not stated),i,-7.3%
COc1ccc(-c2noc(CNC(=O)COc3cccc(C)c3C)n2)cc1,-8.2%,-4.9%
Cc1ccc(N2C(=O)N(CC(=O)N3CCOCC3)C(=O)C2C)cc1 (configuration not stated),-13.0%,-15.1%
S=c1[nH]nc(-c2cc(-c3ccccc3)n[nH]2)n1/N=C/c1ccccc1,i[7.34 µM],-13.0%[7.34 µM]
COc1c([N+](=O)[O-])c(=O)oc2ccccc12,-4.4%,-3.9%
Cc1ccc(CNC(=O)CN2C(=O)CSc3ccc(S(=O)(=O)N4CCCC4)cc32)cc1,-4.1%,-3.3%
CCCN1CCC(=O)N([C@H](CO)CC(C)C)CC1,-8.3%,-6.9%&-10.9%
COc1cc(Cl)c(C)cc1NC(=O)CNC(=O)Cn1ccc2ccccc2c1=O,-4.3%,0.2%
CCN(CC)S(=O)(=O)c1cc(NC(=O)CNc2cccc(S(=O)(=O)N3CCCC3)c2)ccc1C,-26.3%,u
CCN(C(=O)c1sc(N)c(C#N)c1C)C1CCCCC1,x,-23.3%
CCc1nc2ccc(C(=O)Nc3ccc4c(c3)OCO4)cc2nc1CC,-0.4%,-12.0%
O=C1Cc2ccccc2C(c2ccc(Cl)cc2)N1 (configuration not stated),i,-1.1%
CN(C)Cc1c(O)ccc2c1O/C(=C\C=C\c1ccccc1)C2=O,2.5%,13.9%
Cc1cccnc1NC1(C(F)(F)F)N=C(c2ccccc2)NC1=O (configuration not stated),i,-14.7%
CCC(C)NS(=O)(=O)c1ccc(S(=O)(=O)N(CCc2ccc(OC)c(OC)c2)Cc2cccs2)cc1 (configuration not stated),u,-26.9%
Cc1cccn2c(=O)c(C(=O)N3CCN(c4ccc(Cl)cc4)CC3)cnc12,-15.9%,-9.0%
CSc1ncccc1C(=O)OCc1ccccc1,x,-11.8%
COc1ccc(-c2cn3cc(Cl)ccc3n2)cc1OC,u,-27.2%
Cc1ccc(-n2c(=O)c3c(n4cnnc24)-c2ccccc2CC32CCCCC2)cc1,-15.5%,-0.3%
CCC(=O)C1=C(c2ccccc2)N(C(=O)CC)n2c(nnc2C2CCCCC2)S1,-8.7%,-13.6%
CCOC(=O)CCc1c(C)nc2cc(C3CCCN(C(=O)OC(C)(C)C)C3)[nH]n2c1=O (configuration not stated),-2.0%,-10.4%
NC(=O)C1CN(S(=O)(=O)c2ccc(Cl)cc2F)c2ccccc2O1 (configuration not stated),u,-0.7%
Cc1cccc(OCC(=O)NCC(=O)N/N=C/c2ccc(N(C)C)cc2)c1,-2.8%,-4.7%
CCOC(=O)c1c(-c2ccccc2)csc1NC(=O)c1cc(S(=O)(=O)N2CCOCC2)ccc1C,i,-12.4%
CCCS(=O)(=O)N1CCCC(C(=O)NCCCOCC)C1 (configuration not stated),x,-12.2%

Bioassay records from PubChem.
